Compound activity (PubChem BioAssay)
MgrA DNA FP: modulators of Staphylococcus aureus MgrA DNA binding; fluorescence polarization; 84,000 compounds, 0.13% hits; inhibition, %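 (about 10 µg/mL by stock and volumes)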; AID 602314;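 active = above 50% in either of two replicates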;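 also: 0% = protein plus DNA without compound and 100% = DNA alone without protein; higher means less MgrA bound to DNA so lower polarization; one replicate is shown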
S aureus helic: S. aureus DNA helicase inhibition. inhibition, %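 (tested at about 80 µM)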. purified S. aureus helicase, fluorescence unwinding assay; about half of the hits fall short of the stated cut. 120,000 compounds, 0.05% hits;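 active = both duplicates at 50% or more, or one of them with a favoured structure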;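 also: 0% = mean of negative control wells and 100% = mean of positive control wells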
Starred values were filed as active, the others as inactive. Only part of the results is shown. The share of hits here may be higher or lower than overall.

Screening CCC(C)N(Cc1cn(CC)c2ccccc12)C(=O)Nc1ccc(Cl)c(Cl)c1 (stereo not given) returned MgrA DNA FP 1.4 and S aureus helic -10.
`COCCN(CCOC)S(=O)(=O)c1ccc(C(=O)Nc2nc3c(C)cc(C)cc3s2)cc1` gave MgrA DNA FP 0.9.
O=c1cc(NCc2cccs2)[nH]c(=O)n1Cc1ccc(F)cc1 was read as S aureus helic 4.
COC(CN(C)C(=O)c1ccc(CNS(=O)(=O)c2ccc(C)cc2)cc1)OC was read as S aureus helic 5.
Screening O=C(COC(=O)c1cn(-c2ccccc2)nc1-c1cccs1)NC1CCS(=O)(=O)C1 (stereo not given) returned S aureus helic -5.
For CC1CN(C(=O)C(C)Nc2ccc(Oc3ccccc3)cc2)CC(C)O1 (stereo not given) the results were S aureus helic -2.
Screening Cc1ccc(S(=O)(=O)Nc2ccc3nc(-c4cccnc4)[nH]c3c2)cc1 returned S aureus helic 11.
O=C(CSc1nc2ccccc2s1)Nc1ncc2c(n1)CC(c1ccco1)CC2=O (stereo not given) was read as S aureus helic -8.
For Cc1cccc(C(=O)NCCN2CCN(c3ccccc3)CC2)c1 the results were MgrA DNA FP -1.3.
For Cc1cc(C(=O)Cn2cnc3sccc3c2=O)c(C)n1C1CC1 the results were S aureus helic -9.
Screening Cc1ccc(OCCOC(=O)c2nc3nccc(C)n3n2)cc1 returned S aureus helic 10.
O=c1oc2ccccc2cc1-c1nc(-c2cccs2)no1 was read as S aureus helic -21.
Screening COc1cccc(NC(=O)c2ccc(Cl)cc2)c1 returned MgrA DNA FP -1.4 and S aureus helic -11.
Screening COC(=O)CSc1nc(-c2ccccc2)cc(-c2ccccc2)c1C#N returned MgrA DNA FP -0.6 and S aureus helic 1.
CC(C)(SC(=S)N1CCCCCC1)C(=O)O was read as MgrA DNA FP 1.4 and S aureus helic -4.
Screening CSc1ccc(CNC(=O)c2ccc(Cl)cc2)s1 returned MgrA DNA FP 0.3.
For CCc1ccc(N2C(=O)/C(=C/c3cccn3C(C)(C)C)C(=O)NC2=S)cc1 the results were MgrA DNA FP 6.1 and S aureus helic 30.
`CNC(=O)CSc1ncnc2sc3c(c12)CCCC3` gave MgrA DNA FP 1.0 and S aureus helic 3.
Screening CN(C)CCNC(=O)C(c1ccccc1)c1ccccc1 returned S aureus helic -17.
`CC1CCN(C(=O)CSc2nnc(Cc3ccccc3)o2)CC1` gave S aureus helic 8.
For COc1ccc(C(CNC(=O)c2ccc3c(c2)SC2=NS(=O)(=O)CCN23)N2CCOCC2)cc1 (stereo not given) the results were S aureus helic -13.
For O=C1N(c2ccccc2)NC(c2ccco2)C12CCCCC2 (stereo not given) the results were MgrA DNA FP 0.0 and S aureus helic 18.
COc1cc(/C=N/N=C/c2cc(Br)ccc2O)cc(OC)c1OC was read as MgrA DNA FP 1.5.
`COC(=O)c1ccc2c(=O)nc3c(-c4ccccc4)n[nH]n3c2c1` gave S aureus helic -3.
O=C1c2nccnc2C(=O)N1c1ccccc1 was read as MgrA DNA FP -1.4 and S aureus helic 11.
Cc1ccc(Cn2nnc3c(=O)n(Cc4cc(C)ccc4C)cnc32)cc1 was read as S aureus helic 7.
Screening CCOc1nc2ccccc2c(=O)n1CCO returned MgrA DNA FP -1.8 and S aureus helic 2.
N#CSc1c(Cl)nc2sccn12 was read as MgrA DNA FP -1.6 and S aureus helic 0.
Screening Cc1ccc(OCCCn2ccnc2)cc1 returned MgrA DNA FP -5.0 and S aureus helic 10.
CC(C)CCSc1nc(-c2cccs2)ccc1C#N was read as MgrA DNA FP -5.0 and S aureus helic 15.
Screening O=C(O)CSCC(=O)N1CCN(S(=O)(=O)c2cc(Cl)cc(Cl)c2)CC1 returned MgrA DNA FP -4.2.
N#CCOC(=O)c1ccc(-n2cnnn2)cc1 was read as S aureus helic -9.
Cc1ccccc1-c1nnc(CC23CC4CC(CC(C4)C2)C3)o1 was read as S aureus helic -27.
O=C(CC(=O)Nc1ccccn1)Nc1ccc2nc3n(c(=O)c2c1)CCCCC3 was read as MgrA DNA FP -2.2 and S aureus helic 4.
C=CCN(CC=C)C(=O)c1ccccc1F was read as MgrA DNA FP 1.1 and S aureus helic 8.
COc1cccc(C(=O)Nc2cc(C)on2)c1 was read as MgrA DNA FP -3.3 and S aureus helic 9.
`CCS(=O)(=O)N1CC(C)OC(C)C1` (stereo not given) gave MgrA DNA FP 0.8 and S aureus helic 5.
Screening O=C(Nc1ccc(Br)cc1)c1cnn2c1NC(c1ccc(Br)cc1)CC2C(F)(F)F (stereo not given) returned MgrA DNA FP -0.2.
Screening O=C1c2cccc3cccc(c23)C(=O)N1CCCCCCCCN1C(=O)c2cccc3cccc(c23)C1=O returned MgrA DNA FP -1.4.
Screening CCOC(=O)c1ccc(NC(=O)CSc2nccn2C)cc1 returned MgrA DNA FP -2.9.
Screening Cc1ccc(CNC(=O)Cn2ccn(-c3ccccc3)c(=O)c2=O)cc1 returned S aureus helic -10.
Screening CN(C)S(=O)(=O)c1ccc(C(=O)Oc2cc(Cl)c[nH]c2=O)cc1 returned S aureus helic -12.
`NC(=O)COC(=O)c1sc2ccccc2c1Cl` gave MgrA DNA FP -0.7 and S aureus helic -10.
CC(C)C(=O)N=C1SC2CS(=O)(=O)CC2N1c1ccccc1 (stereo not given) was read as MgrA DNA FP -2.9 and S aureus helic 2.
O=C(COC(=O)c1ccc2ccccc2n1)Nc1ccc(Cl)c(C(F)(F)F)c1 was read as MgrA DNA FP -4.7 and S aureus helic -24.
Screening C=CCN(c1ccc(OC)cc1)S(=O)(=O)c1cccc(C(=O)OC)c1 returned S aureus helic 7.
For O=C(COC(=O)Cc1ccsc1)Nc1ccccc1 the results were MgrA DNA FP -2.0 and S aureus helic 22.
`O=C(CSc1nc2ccccc2o1)C12CC3CC(CC(C3)C1)C2` gave S aureus helic -5.
`C/C(=C\C#N)n1nc(C)cc1N` gave MgrA DNA FP -2.7 and S aureus helic -8.
For CNC(=O)NC(=O)C(Sc1nnc(-c2ccco2)n1Cc1ccccc1)c1ccccc1 (stereo not given) the results were S aureus helic 8.
`COc1ccccc1C1=Nn2c(Cc3cccc4ccccc34)nnc2SC1` gave S aureus helic 9.
`CCc1nnc(SCC(=O)N(CC)c2cccc(C)c2)c2cc3occc3n12` gave S aureus helic -9.
For CN(C)Cc1ccc2ccc3cccc4ccc1c2c34 the results were MgrA DNA FP 1.0 and S aureus helic 50*.
Screening CCOC(=O)/C(=N\Nc1cccc(C(F)(F)F)c1)N1CCCC1 returned S aureus helic -7.
For CC(C)NC(=O)C(Sc1ccccc1)c1ccccc1 (stereo not given) the results were S aureus helic -6.
`COCCNC(=O)CN1CCC(NC(=O)Nc2ccc(C(F)(F)F)cc2)CC1` gave MgrA DNA FP 0.6 and S aureus helic 6.
For CCn1c(C)nc2cc(O)ccc21 the results were MgrA DNA FP -0.1 and S aureus helic -30.
`CCN(CC)CCNc1nc2c(c(=O)n(C)c(=O)n2C)n1Cc1ccc(F)cc1` gave S aureus helic 9.
c1coc(-c2ncc3ccccn23)c1 was read as S aureus helic -24.
CSc1[nH]c(=O)[nH]c(=O)c1C#N was read as MgrA DNA FP -1.6.

The final 6 compounds of the section above open the next one.
For CC(C)NC(=O)C(Sc1ccccc1)c1ccccc1 (stereo not given) the results were S aureus helic -6.
`COCCNC(=O)CN1CCC(NC(=O)Nc2ccc(C(F)(F)F)cc2)CC1` gave MgrA DNA FP 0.6 and S aureus helic 6.
For CCn1c(C)nc2cc(O)ccc21 the results were MgrA DNA FP -0.1 and S aureus helic -30.
`CCN(CC)CCNc1nc2c(c(=O)n(C)c(=O)n2C)n1Cc1ccc(F)cc1` gave S aureus helic 9.
c1coc(-c2ncc3ccccn23)c1 was read as S aureus helic -24.
CSc1[nH]c(=O)[nH]c(=O)c1C#N was read as MgrA DNA FP -1.6.
Screening CN(c1ccccc1)S(=O)(=O)c1ccc(N2CCCCS2(=O)=O)cc1 returned S aureus helic 6.
`Cc1nc2sccn2c1C(=S)NC(=O)c1ccccc1F` gave S aureus helic 8.
Screening COC(=O)c1sccc1N(Cc1ccccc1)S(C)(=O)=O returned S aureus helic -30.
c1ccc(Cn2c3ccccc3c3nnc(SCc4ccc5nonc5c4)nc32)cc1 was read as MgrA DNA FP 0.2 and S aureus helic 3.
`O=C(Cn1ccc(=O)[nH]c1=O)Oc1ccc(Br)cc1Cl` gave S aureus helic -6.
For CC(C)(C)S(=O)(=O)Cc1noc(-c2ccc(F)cc2Cl)n1 the results were MgrA DNA FP -2.6.
Screening Cc1occc1-c1nnc(SC(C)C(=O)NC2CCCc3ccccc32)n1-c1ccccc1 (stereo not given) returned S aureus helic 19.
For CN(Cc1ccccc1)C1(O)C(=O)Nc2c(C(F)(F)F)cccc21 (stereo not given) the results were MgrA DNA FP 0.7 and S aureus helic 17.
Screening OCCNc1nc2ccccc2nc1NCCO returned MgrA DNA FP -0.4.
Screening Cc1ccc2c(c1)N(C(=O)N1CCC(C(=O)N3CCCCCC3)CC1)CC(C)O2 (stereo not given) returned S aureus helic 24.
Screening COc1ccc2c(c1)OCC1=C2CCC2(C)C(=O)CC=C12 (stereo not given) returned MgrA DNA FP 24 and S aureus helic -18.
`O=C(Nc1ccc(N2CCOCC2)cc1)c1n[nH]c(=O)c2ccccc12` gave S aureus helic 16.

5 entries picked at random from the list so far, as already listed:
Screening Cc1ccc2c(c1)N(C(=O)N1CCC(C(=O)N3CCCCCC3)CC1)CC(C)O2 (stereo not given) returned S aureus helic 24.
Screening COC(=O)c1sccc1N(Cc1ccccc1)S(C)(=O)=O returned S aureus helic -30.
c1ccc(Cn2c3ccccc3c3nnc(SCc4ccc5nonc5c4)nc32)cc1 was read as MgrA DNA FP 0.2 and S aureus helic 3.
`Cc1nc2sccn2c1C(=S)NC(=O)c1ccccc1F` gave S aureus helic 8.
Screening OCCNc1nc2ccccc2nc1NCCO returned MgrA DNA FP -0.4.

New compounds follow:
For O=C1c2cccc3c(N4CCCC4)ccc(c23)C(=O)N1c1ccccc1 the results were MgrA DNA FP 2.1 and S aureus helic -8.
Screening O=C(c1cc2c(s1)CCC2)N(CCO)Cc1ccccc1 returned MgrA DNA FP -1.2 and S aureus helic -4.
Cc1ccc(/C=N/NC(=O)CNc2cccc(C(F)(F)F)c2)o1 was read as S aureus helic -10.
Screening COCC(C)NC(=O)c1ccc(OC(C)=O)cc1 (stereo not given) returned MgrA DNA FP 0.2 and S aureus helic -1.
For CN1CC=C2C(C#N)=C(N)C(C#N)(C#N)C(Cc3ccccc3)C2C1 (stereo not given) the results were MgrA DNA FP 15 and S aureus helic -18.
`c1ccc2c(c1)oc1c(NC3CCCC3)ncnc12` gave MgrA DNA FP -4.0 and S aureus helic 0.
For O=C(NCCN1CCOCC1)c1cc(NS(=O)(=O)c2cccs2)cc(NS(=O)(=O)c2cccs2)c1 the results were S aureus helic -9.
Screening Cc1nn2c3ccccc3nc2n1CCN1CCCCC1 returned MgrA DNA FP -0.4 and S aureus helic 3.
Screening CCC(Nc1ccc(Br)cc1)C(=O)N/N=C/c1ccco1 (stereo not given) returned S aureus helic -26.
Oc1ccc(-n2cccc2)cc1 was read as MgrA DNA FP -0.1 and S aureus helic 5.
CCOC(=O)c1c(CN2CCN(c3ccccc3)CC2)n(C)c2cc(Br)c(OC)cc12 was read as MgrA DNA FP -0.9.
For Cc1[nH][nH]c(=O)c1Sc1nc2ccccc2[nH]1 the results were S aureus helic 8.
For Cc1sc2nc(SCc3nc(-c4cccs4)no3)n(-c3ccccc3)c(=O)c2c1C the results were MgrA DNA FP -0.2 and S aureus helic 8.
For O=c1oc2c3ccccc3c3oc(=O)sc3c2s1 the results were S aureus helic 11.
For O=C(Nc1ccc(-n2cnnn2)cc1)C1CC(=O)N(C2CCCC2)C1 (stereo not given) the results were S aureus helic -5.
`O=C(O)C1CC1(C(=O)O)C(F)(F)F` (stereo not given) gave S aureus helic -24.
`COc1ccc(OC)c(C(=O)CSc2nc3ccccc3o2)c1` gave S aureus helic 13.
Screening O=C(ON(C(=O)c1ccccc1)c1ccccc1)c1ccccc1 returned MgrA DNA FP -2.2 and S aureus helic -5.
CCCC(N)c1cccs1 (stereo not given) was read as MgrA DNA FP 2.5 and S aureus helic 6.
For Cc1cc(C(=O)O/N=C(\N)c2ccc(C(C)(C)C)cc2)no1 the results were S aureus helic 10.
For CNC(=O)c1ccc(C(=O)N(C(C)C)C(C)C)cc1 the results were MgrA DNA FP -1.9.
`CNC(=S)N/N=C/c1ccc(C(=O)OC)cc1` gave S aureus helic -6.
Screening Cc1c(-c2ccccc2)[n+](=O)c(-c2ccco2)c(C)n1[O-] returned MgrA DNA FP 2.0 and S aureus helic 0.
Screening COCCn1cnc2c1c(=O)n(CC(=O)c1cc(C)n(-c3ccccc3)c1C)c(=O)n2CC(C)C returned S aureus helic 3.
`CC1CCCCN1C(=O)c1ccc(S(=O)(=O)NCc2cccnc2)cc1` (stereo not given) gave MgrA DNA FP 16 and S aureus helic 6.
`CCN(C(=O)c1coc(=O)c2ccccc12)c1cccc(C(F)(F)F)c1` gave MgrA DNA FP -0.6 and S aureus helic 3.
C/C=C/C(=O)OCc1ccc(Cl)cc1Cl was read as MgrA DNA FP -0.2 and S aureus helic 12.
Nc1nc(-c2ccc(Cl)cc2Cl)cs1 was read as S aureus helic 4.
CC(=O)NC1Sc2ccccc2N=C1c1ccccc1 (stereo not given) was read as MgrA DNA FP 3.7 and S aureus helic 7.

A draw from above in order of formula weight, largest number first:
Screening COC(=O)CSc1nc(-c2ccccc2)cc(-c2ccccc2)c1C#N returned MgrA DNA FP -0.6 and S aureus helic 1.
Screening O=C(c1cc2c(s1)CCC2)N(CCO)Cc1ccccc1 returned MgrA DNA FP -1.2 and S aureus helic -4.
c1coc(-c2ncc3ccccn23)c1 was read as S aureus helic -24.
